Screens (PubChem BioAssay)
B2AR ag: agonists of human beta-2 adrenergic receptor inducing internalization. Am2.2-beta2AR cells, FAP receptor internalization, flow cytometry; reference of the scale not given here. 0.43% of 340,000 active. AID 504454. response, % (test concentration not listed);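 active = response above a set limit, near 3 SD of response in nonfluorescent compounds, cut at about 42% in these data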;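 also: stock transfer was 100 nL into about 11 µL; a reference agonist was the positive control; negative values mostly stem from fluorescent compounds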
ALR H2O2 inh: human ALR oxidase inhibition via reduced H2O2 | purified ALR, DTT oxidation, H2O2 HRP-luminol luminescence | inhibition, % (concentration not given with the values) | 3.8% of 290,000 active;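 active = mean and each replicate at 75% or more; inconclusive = only one of the two met; inactive = neither met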;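 also: stock transfer was 7.5 nL into about 7.5 µL; 0% = neutral wells and 100% = wells with inactivated enzyme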
HNF4A DNA FP: change in binding of human HNF4 alpha to DNA | activity change, % at 10 µM | HNF4a-FITC DNA binding, fluorescence polarization, 1 h | 0.3% of 360,000 active | AID 1224865; in the data active = activity change above about 30%, passing the limit was not always enough;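 also: controls were the assay level and a saturating level of protein; the project sought stronger binding though the title names inhibitors; some compounds called inactive have numbers as strong as hits; positive values seem to mean higher polarization but the record does not say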
Ecoli growth: inhibitors of Escherichia coli growth; OD600 absorbance (test concentration not listed); OD600, 23 h; hits give low values; AID 1053175; 0.21% of 330,000 active;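 active = OD600 absorbance below the run mean of sample wells minus 3.6 SD, in any replicate, cut at about 0.56 in these data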;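 also: stock transfer was 300 nL into about 60 µL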
LANA-H2A inh: blocks KSHV LANA binding to histone H2A/H2B; Q9QR71; cell-free LANA-H2A/H2B peptide, fluorescence polarization; inhibition, % (no concentration beside the values); AID 2629; 0.6% of 320,000 active; in the data active = inhibition mostly above about 10%, no sharp cut-off; inactive = mostly below about 6.7%;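 also: stock transfer was 7.5 nL into about 10 µL; 0% = median of vehicle wells and 100% = median of positive control wells; one replicate is shown; the record names a cut of 25% in any replicate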
Target sequence (Q9QR71 whole entry, looked up): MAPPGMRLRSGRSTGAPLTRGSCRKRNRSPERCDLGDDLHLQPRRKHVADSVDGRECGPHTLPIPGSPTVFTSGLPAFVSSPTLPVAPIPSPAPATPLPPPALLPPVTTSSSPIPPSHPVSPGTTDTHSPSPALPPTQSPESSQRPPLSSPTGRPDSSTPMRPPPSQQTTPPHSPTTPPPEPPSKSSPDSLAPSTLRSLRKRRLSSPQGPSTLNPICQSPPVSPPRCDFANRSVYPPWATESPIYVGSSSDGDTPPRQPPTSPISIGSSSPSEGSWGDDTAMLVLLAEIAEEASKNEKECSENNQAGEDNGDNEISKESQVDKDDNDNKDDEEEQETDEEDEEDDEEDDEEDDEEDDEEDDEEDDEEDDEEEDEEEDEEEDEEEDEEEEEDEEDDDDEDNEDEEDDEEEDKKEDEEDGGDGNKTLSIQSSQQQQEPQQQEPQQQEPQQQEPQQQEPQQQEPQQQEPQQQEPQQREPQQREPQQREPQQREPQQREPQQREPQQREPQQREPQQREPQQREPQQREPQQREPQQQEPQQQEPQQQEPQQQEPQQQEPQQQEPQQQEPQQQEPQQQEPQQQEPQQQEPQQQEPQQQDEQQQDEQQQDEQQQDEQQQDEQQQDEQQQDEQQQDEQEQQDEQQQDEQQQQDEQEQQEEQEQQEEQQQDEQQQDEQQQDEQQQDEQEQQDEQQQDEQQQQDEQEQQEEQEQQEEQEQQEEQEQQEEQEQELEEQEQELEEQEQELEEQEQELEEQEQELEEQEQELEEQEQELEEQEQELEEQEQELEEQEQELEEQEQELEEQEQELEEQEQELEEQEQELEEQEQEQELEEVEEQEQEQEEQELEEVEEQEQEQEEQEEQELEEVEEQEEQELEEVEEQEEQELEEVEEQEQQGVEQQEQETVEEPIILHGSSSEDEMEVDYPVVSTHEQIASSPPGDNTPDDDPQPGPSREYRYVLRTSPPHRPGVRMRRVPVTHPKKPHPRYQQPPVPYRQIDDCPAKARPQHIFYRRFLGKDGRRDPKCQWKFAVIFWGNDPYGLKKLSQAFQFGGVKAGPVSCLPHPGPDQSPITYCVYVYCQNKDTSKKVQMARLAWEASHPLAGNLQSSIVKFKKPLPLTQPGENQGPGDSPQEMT
UCH37 inh: blocks the human deubiquitinase UCH37 | inhibition, % (no concentration beside the values) | Q9Y5K5 | AID 588478 | 0.33% of 330,000 active | purified proteasome/UCH37, Ub-AMC cleavage fluorescence;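 active = mean of two replicates above 20%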;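 also: 0% = compound-free wells with enzyme and 100% = wells lacking proteasome; stock transfer was 100 nL into about 20 µL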
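Test system – human UCH37 enzyme supplied as purified proteasome complex · Incubation – 30 min preincubation with enzyme, 25 min cleavage at room temperature · Detection – AMC fluorescence from Ub-AMC cleavage, excitation 355 nm, emission 460 nm · Benchmarks – no-proteasome wells (full inhibition) and compound-free wells (no inhibition)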
FGF22 binding: shifts melting point of recombinant human FGF22 | Q9HCT0 | recombinant FGF22 thermal shift, SYPRO orange fluorescence; percent of sucrose octasulfate shift, DMSO zero | calls only at 9.99 µM | 1.5% of 340,000 active;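 active = melting point raised past a set limit in the mean and every replicate; inconclusive = no clear call; three in four hits are not shown here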
Numbers without * were called inactive; i = inactive; ? = inconclusive; . = no result given.

B2AR ag	ALR H2O2 inh	HNF4A DNA FP	Ecoli growth	LANA-H2A inh	UCH37 inh	FGF22 binding	SMILES
14.8	.	-1.6	0.667	2.3	2.0	i	CC(C)(C)NS(=O)(=O)c1ccc(NC(=O)C2CC(=O)N(CCc3ccc(F)cc3)C2)cc1 (centres undefined)
-3.5	-1.3	0.8	0.667	4.2	1.3	i	CC(C(O)C12CC3CC(CC(C3)C1)C2)N1CCCCC1 (centres undefined)
3.8	97.8*	-1.1	0.677	-4.6	0.3	.	O=C(CSc1nc2ccccc2[nH]1)Nc1nc(-c2ccc(Br)cc2)cs1
-2.5	-18.9	1.1	.	-1.6	.	.	O=C(CN1C(=O)S/C(=C\C=C\c2ccccc2)C1=O)Nc1ccc(O)cc1
-1.9	0.2	-0.1	0.677	-4.2	1.2	i	COc1ccccc1OCC(=O)NNC(=O)Nc1ccccc1
1.0	.	-0.7	0.809	.	2.6	.	Cc1cc(C)cc(N(CC(=O)NC2CCCCC2)C(=O)CCC(=O)Nc2cc(C)ccn2)c1
1.4	-1.6	-4.4	0.679	8.6	-2.2	.	Cc1nc(NC(=O)C(Cl)Cl)sc1C(=O)N(C)C
11.3	20.1	1.7	0.699	1.1	-4.4	i	CC(=O)c1ccc(-c2ccc(C(=O)N3CCN(c4ccc(F)cc4)CC3)o2)cc1
-2.5	-3.1	-1.6	0.709	3.8	1.4	i	CCOC(=O)c1c(S(=O)(=O)NCc2cccs2)c(C)n(C)c1C
4.8	-6.4	-2.8	0.65	2.0	0.5	.	Cc1ccc(S(=O)(=O)Nc2ccc3c(c2)ncn3C(C)(C)C)cc1
-8.7	-4.6	2.7	0.732	-2.2	-67.3	.	Cc1ccccc1S(=O)(=O)c1c(C)cc(-c2ccccc2)[nH]c1=O
7.7	-3.0	-0.9	0.707	2.4	0.8	i	Cc1nnc(NC(=O)CCC(=O)N2CCC(C)CC2)s1
15.7	-14.3	-0.6	0.699	-1.9	2.0	.	COC(=O)C1CCCN1S(=O)(=O)c1ccc2ccccc2c1 (centres undefined)
6.1	10.4	1.4	0.708	-2.4	-0.5	i	COc1ccccc1N1CCN(C2CCCN(C(=O)CCN3CCCCO3)C2)CC1 (centres undefined)
-10.5	-13.4	0.9	0.706	-3.6	-10.2	.	CCOC(=O)Cc1cc(-c2ccc(F)cc2)nc2ccc3ccccc3c12
-2.7	-4.9	-4.2	0.731	-1.8	1.9	i	Cc1ccc2oc(C(=O)N3CCN(CC(=O)NC(C)C)CC3)c(C)c2c1
6.5	-3.1	1.1	0.74	-2.3	5.8	i	CCN1CCCC1CNC(=O)CS(=O)(=O)Cc1nc(-c2ccccc2C)oc1C (centres undefined)
14.2	-8.6	0.2	0.724	4.4	-61.3	i	Cc1ccc(N=Cc2c(C)[nH]n(-c3nc4ccccc4[nH]3)c2=O)cc1
-3.8	-1.4	0.9	0.707	2.8	2.7	i	CSc1ccccc1NC(=O)c1ccc(N2CC3CC(C2)c2cccc(=O)n2C3)c(NC(=O)c2cccnc2)c1 (centres undefined)
-6.7	0.5	-5.1	0.669	2.4	11.7	i	COc1cc([N+](=O)[O-])ccc1NC(=O)CN1CCOCC1
0.2	3.8	-1.2	.	0.2	.	i	Cc1ccsc1C(=O)Nc1ccc(OCc2ccccc2)cc1
-9.9	-1.7	-0.5	0.725	1.1	6.4	i	Cc1cc(S(=O)(=O)NC2CCCCC2)ccc1OCC(=O)N1CCOCC1
5.4	.	-0.8	0.663	0.6	2.1	.	CCCOc1ccc(OC(=O)c2ccc(Br)o2)cc1
2.4	1.7	-4.4	.	-2.6	.	i	Cc1ccc(C(C)C)c(OCC(=O)N/N=C/c2cccn2C)c1
5.6	-5.9	1.4	0.739	0.6	-6.3	.	COc1cccc(NC(=O)N(CCCN2CCOCC2)C(C)c2cc3cccc(OC)c3o2)c1 (centres undefined)
0.3	-4.4	-4.8	0.753	3.3	-16.8	.	CCOc1cc(C2NN=C(c3ccccc3)S2)ccc1OCc1ccccc1Cl (centres undefined)
7.8	-18.7	0.1	0.73	3.5	-2.0	i	COc1ccc(OC)c(NC(=O)CC(NC(C)=O)c2ccccc2)c1 (centres undefined)
27.8	-20.6	-0.6	0.671	2.2	4.2	.	O=C(O)c1cc([N+](=O)[O-])ccc1C(=O)Nc1ccccc1
-0.6	.	1.9	0.685	.	3.3	i	Cc1ccc(NC(=O)C2CC(O)CN2C(=O)OCc2ccccc2)cc1C (centres undefined)
9.8	-1.2	10.2	0.704	3.5	0.5	.	CC(C)OCCCN1C(=O)c2ccccc2C1C(=O)NC1CCCCC1 (centres undefined)
-5.6	40.2	3.4	0.654	-1.8	-1.1	i	CCN(CC)C(=O)c1[nH]cnc1C(=O)NCCCCCNC(=O)OC(C)(C)C
-2.6	.	-7.0	0.655	-1.4	13.5	i	CC(C)c1ccc(NC(=O)Cn2c(=O)oc3cccnc32)cc1
0.4	-7.6	0.8	0.694	3.8	1.7	.	CN1CCN(C(=S)c2ccc(OCC(=O)Nc3cccc(C(F)(F)F)c3)cc2)CC1
-2.5	.	1.9	0.759	.	4.8	.	Cc1ccc(Cn2c(-c3nonc3N)nc3ccccc32)cc1
-3.2	-2.3	-5.5	.	5.3	.	.	O=C(N/N=C/c1cccc(Br)c1)c1ccc(Br)cc1
-9.4	23.2	2.5	0.715	9.0	2.3	i	O=C1CC(N2CCN(c3ccc(Cl)cc3)CC2)C(=O)N1c1ccccc1 (centres undefined)
-1.9	.	4.4	0.727	2.9	1.4	.	COc1ccc(S(=O)(=O)N2CC3CCCN3c3ccc(C(F)(F)F)cc32)cc1 (centres undefined)
21.0	-21.1	0.8	.	-4.2	-1.2	.	c1ccc(C[C@H]2CN=C(Nc3ccccc3)N2CCCC2CCCC2)cc1
-5.1	-18.3	-2.4	0.661	0.7	0.6	.	CCOC(=O)c1c(-c2ccccc2)nnn1-c1nc(OCC)nc(N2CCCCC2)n1
15.6	12.8	-0.9	0.63	0.2	2.3	i	O=C(Nc1cccc(S(=O)(=O)NC2=NCCCCC2)c1)c1cc(-c2ccncc2)nc2ccccc12
21.1	-2.8	1.1	0.707	4.5	4.3	i	Cc1ccc(S(=O)(=O)N2CCOCC2)cc1NC(=O)COc1ccc(C(=O)c2ccccc2)cc1
-0.7	?	2.5	.	-2.7	.	.	CC(C)(C)CC(C)(C)c1ccc(OCC(=O)N/N=C/c2ccc(S(=O)(=O)O)o2)cc1
-0.5	2.2	2.4	0.631	0.2	3.2	.	N#C/C(=C\c1ccc[nH]1)Sc1nc2ccccc2s1
4.4	-4.8	-0.6	0.683	5.0	0.8	i	CSc1nc2c(c(=O)[nH]c(=O)n2C)n1CCCc1ccccc1
0.2	-2.8	4.6	0.659	-0.2	-142.5	.	NC(=O)c1nsc(C(=O)N(c2cccc(F)c2)C(C(=O)NCC2CCCO2)c2cccs2)c1N (centres undefined)
-6.5	.	-2.5	0.678	0.3	0.6	.	Cc1cnc(NC(=O)CSc2nnc(CNc3ccc(F)cc3)n2CC2CCCO2)s1 (centres undefined)
2.6	-9.0	-1.4	0.68	6.2	-0.9	i	CCOC(=O)Cc1csc(NC(=O)COc2cc(C)cc(C)c2)n1
-1.5	1.6	0.6	.	0.7	1.5	.	C[C@@H](C(=O)OCC(=O)Nc1cc(S(=O)(=O)N2CCOCC2)ccc1Cl)N1C(=O)C2CCCCC2C1=O (some centres undefined)
-15.5	2.1	-1.2	0.693	-6.9	2.9	i	CCOc1ccccc1Oc1nc(-c2ccccc2O)nc2ccccc12
-2.8	.	-0.2	0.726	.	-1.4	i	CCOC(=O)C1=C(C)N(C[C@@H]2CC[C@@H](Cc3ccc(-c4ccccc4)cc3)O2)C(=O)NC1c1ccc(C(F)(F)F)cc1 (some centres undefined)
-13.1	8.1	-2.4	0.668	-1.1	i	.	Cc1ccc(C2Nc3ccccc3-c3nc4ccccc4n32)o1 (centres undefined)
-0.7	.	0.1	0.69	-0.1	1.4	i	Cc1ccc(CNC(=O)CN2C(=O)CSc3ccc(S(=O)(=O)N4CCCCC4)cc32)cc1
11.0	-19.0	-2.1	0.415*	-3.6	-134.8	i	CCCCCCCCC(=O)N1CCN(c2cc3c(cc2F)c(=O)c(C(=O)O)cn3CC)CC1
0.8	-7.1	2.0	0.691	3.0	2.6	i	O=C(NCCN1CCOCC1)c1cccnc1SCc1ccccc1Cl
14.8	.	-2.4	0.658	2.8	1.3	i	O=C(CN(C(=O)CCC(=O)Nc1nccs1)c1ccc(F)c(Cl)c1)NCC1CCCO1 (centres undefined)
-5.1	-23.8	2.6	0.71	5.5	1.0	i	O=C(CNS(=O)(=O)c1ccc2ccccc2c1)NCCc1ccccn1

Next results follow.
B2AR ag	ALR H2O2 inh	HNF4A DNA FP	Ecoli growth	LANA-H2A inh	UCH37 inh	FGF22 binding	SMILES
4.8	-2.8	0.3	0.72	4.6	1.8	i	COc1ccc(N2C(=O)CC(N(CCc3ccc(OC)c(OC)c3)C(=S)Nc3ccccc3)C2=O)cc1 (centres undefined)
-5.5	2.9	2.6	.	-0.9	.	i	Cc1ccc2nc(Cl)c(/C=N/NC(=O)[C@H]3C[C@@H]3c3ccccc3)cc2c1
-1.3	5.0	-1.3	0.708	-2.1	2.6	i	CCOC(=O)N1CCN(C(=O)CS(=O)(=O)c2cn(Cc3ccccc3Cl)c3ccccc23)CC1
-4.4	.	0.2	0.692	-0.1	5.0	.	Cc1cc([N+](=O)[O-])c(NC2CCCCC2)c([N+](=O)[O-])c1
-2.3	53.0	-2.2	0.719	-1.4	-44.1	.	COc1ccc2c(c1)C(C)=CC(C)(C)N2C(=O)Nc1ccccc1
0.4	-6.7	-1.0	0.69	-5.8	0.9	.	O=C(CSc1nnc(-c2ccco2)n1Cc1ccco1)NCc1ccccc1
-11.9	0.5	2.2	0.658	2.0	1.9	i	CCOC(=O)Cc1csc(NS(=O)(=O)c2ccc3ccccc3c2)n1
3.0	1.8	-10.8	0.657	0.5	-14.0	i	CCCCn1c(N)c(N(CCOC)C(=O)c2cc(-c3ccco3)nc3ccccc23)c(=O)[nH]c1=O
2.5	-7.3	-2.5	0.689	-5.0	1.6	i	Cc1ccc(C(=O)C(O)C(c2ccc(C)cc2)N2CCCCC2)cc1 (centres undefined)
-41.3	5.6	1.5	0.69	4.2	-14.1	i	Cc1c(CCC(=O)O)c(=O)oc2cc3occ(-c4ccc(Br)cc4)c3cc12
10.7	-12.4	0.5	0.727	0.0	5.4	i	CCOc1cc(C(=O)NC(C)CCc2ccccc2)cc(OCC)c1OCC (centres undefined)
3.3	35.6	0.9	0.619	0.3	0.0	.	O=c1ccnc(S/C=C/c2ccccc2)[nH]1
-1.8	-3.1	0.8	0.708	4.7	4.8	i	Cc1cc(CNC(=O)C2CCC(=O)N(CCc3ccc(Cl)cc3)C2)no1 (centres undefined)
-2.2	-17.1	1.6	0.624	0.2	1.0	i	CCN(CC(=O)Nc1ccccc1C(F)(F)F)C(=O)CSCC(=O)Nc1cc(C)on1

5 entries from above, arranged by heavy-atom count, highest first:
B2AR ag	ALR H2O2 inh	HNF4A DNA FP	Ecoli growth	LANA-H2A inh	UCH37 inh	FGF22 binding	SMILES
3.0	1.8	-10.8	0.657	0.5	-14.0	i	CCCCn1c(N)c(N(CCOC)C(=O)c2cc(-c3ccco3)nc3ccccc23)c(=O)[nH]c1=O
-2.2	-17.1	1.6	0.624	0.2	1.0	i	CCN(CC(=O)Nc1ccccc1C(F)(F)F)C(=O)CSCC(=O)Nc1cc(C)on1
-1.8	-3.1	0.8	0.708	4.7	4.8	i	Cc1cc(CNC(=O)C2CCC(=O)N(CCc3ccc(Cl)cc3)C2)no1 (centres undefined)
2.5	-7.3	-2.5	0.689	-5.0	1.6	i	Cc1ccc(C(=O)C(O)C(c2ccc(C)cc2)N2CCCCC2)cc1 (centres undefined)
3.3	35.6	0.9	0.619	0.3	0.0	.	O=c1ccnc(S/C=C/c2ccccc2)[nH]1

An excerpt; rates above refer to the full screens.
